H5N1 CPE = MDCK cell protection from H5N1 avian flu | cytopathic effect, luminescence, 72 h; hits give high values; no value below 0 was filed and about half of the inactive calls have no number; reference of the scale not given here | inhibition, % at 50 µM | 0.07% of 96,000 active | AID 740, 2007; in the data active means inhibition above about 25%
* hit, by the source's call; i = inactive.

The first three entries as a preview:
compound,H5N1 CPE
Cc1ccc(C(=O)NCCNC(=O)CN2CCOCC2)cc1,i
Cc1ccc(-n2nc3ccc(NC(=O)/C=C/c4ccco4)cc3n2)cc1C,i
CN(CCCNC(=O)c1ccc(/C=N/O)nc1)CCCN(C)Cc1ccccc1,1.9

The whole of this part, repeating the preview:
compound,H5N1 CPE
Cc1ccc(C(=O)NCCNC(=O)CN2CCOCC2)cc1,i
Cc1ccc(-n2nc3ccc(NC(=O)/C=C/c4ccco4)cc3n2)cc1C,i
CN(CCCNC(=O)c1ccc(/C=N/O)nc1)CCCN(C)Cc1ccccc1,1.9
O=C(NCc1cccc(Cl)c1)c1ccco1,0.4
CC(C)COC(=O)C(N)C(C(=O)OCC(C)C)c1ccccc1 (configuration not stated),i
Cc1ccc(S(=O)(=O)c2nc(S(C)(=O)=O)sc2NCC2CCCO2)cc1 (configuration not stated),0.7
O=C(NNc1ncc(C(F)(F)F)cc1Cl)c1c(Cl)cccc1Cl,6.5
Cc1cc(NC(=O)CN2C(=O)C3CC=CCC3C2=O)no1 (configuration not stated),i
CNC(=O)c1sccc1-n1cccc1,0.8
O=C(CN(CCc1ccccc1)C(=O)CNS(=O)(=O)c1ccc(F)cc1)NCC1CCCO1 (configuration not stated),i
COc1cccc(-c2nn(C)c3sc(C(=O)NCc4ccc5c(c4)OCO5)cc23)c1,i
Cn1c(SCC(=O)NC2CCCCC2)nnc1-c1cc2cc(Cl)ccc2o1,3.3

Going on with the list.
compound,H5N1 CPE
CCCCN(CCCC)C(=O)/C=C/c1cccc([N+](=O)[O-])c1,0.3
CC(=NCCN1CCCCC1)c1c(O)n(-c2ccc(Cl)cc2)c(=O)[nH]c1=O,0.8
O=C(NCCCN1CCOCC1)c1ccc(Br)s1,i
O=C(NCc1ccc(Cl)cc1)c1ccccc1Oc1ccccc1,i
COc1ccc(/C(C)=N/NC(=O)c2ccc(CSc3cccc4cccnc34)cc2)cc1OC,i
C=CCNc1nc(C2(C)CC3(CC(C)(C)OC3=O)C(=O)O2)cs1 (configuration not stated),2.7
CCOC(=O)C1CCN(CCC(=O)Nc2cccc(Cl)c2)CC1,i
O=c1oc2cc(Oc3c([N+](=O)[O-])cc(C(F)(F)F)cc3[N+](=O)[O-])ccc2c2c1CCCC2,0.0
Cc1ccccc1NS(=O)(=O)c1ccc(NC(=O)CSCc2ccc(Br)cc2)cc1,i
CC(C)(C)c1ccc(-c2c(C#N)c(N)nc3c2CCCC3)s1,0.6
COc1ccccc1-c1nc(C#N)c(N2CCc3ccccc3C2)o1,0.9
COc1ccc(N2C(=O)CCC(C(=O)N3CCOCC3)C2c2ccc(F)cc2)cc1 (configuration not stated),1.2

Later entries:
compound,H5N1 CPE
O=S1(=O)C=C(Sc2nc3cc(Cl)ccc3o2)c2ccccc21,i
CN(C)S(=O)(=O)c1ccc(N2CCCC2)c(C(=O)NC(c2ccccc2)c2ccccc2)c1,i
Fc1ccc2nc3[nH]c4ccccc4c3nc2c1,0.5
COc1cnc(-c2ccccn2)nc1Sc1c(Cl)cccc1Cl,1.1
CCOC(=O)COn1c2c(c3c4no[n+]([O-])c4ccc31)CCCC2,0.5
Cc1c(-c2ccccc2)nc2ccccc2c1C(=O)Oc1ccc([N+](=O)[O-])cc1,0.3
Brc1ccc(C2Nc3cccc4cccc(c34)N2)o1,i
CC(C)CCNC(=O)COc1ccc2c(c1)C(=O)CC(C)(C)O2,0.8
COc1ccc(CNC(=O)CCS(=O)(=O)c2cccc3nonc23)cc1,0.6
COc1ccc(N(CC(=O)NC2CCCCC2)S(=O)(=O)c2c(C)[nH]c(=O)[nH]c2=O)cc1,0.5
Cn1c(SCC(=O)Nc2ccccc2-c2ccccc2)nnc1-c1ccco1,0.1
O=C(Nc1ccccc1-c1nc2ccccc2[nH]1)c1ccc(S(=O)(=O)N2CCCCC2)cc1,0.7

New compounds follow.
compound,H5N1 CPE
CC(C)(C)n1nnnc1C(c1cccc(C#N)c1)N1CCN2CCCC2C1 (configuration not stated),i
CC1C(=O)CC(c2ccccc2)NC1c1ccccc1 (configuration not stated),1.2
CCCc1[nH]nc2c1C1(CCOC1C)C(C#N)=C(N)O2 (configuration not stated),i
CCCCNS(=O)(=O)c1ccc2nc(SCC(=O)N3CC(C)OC(C)C3)[nH]c2c1 (configuration not stated),i
CC(C)Sc1nc2c(c(=O)n1-c1ccc(F)cc1)SCC2,i
O=C(Cc1ccsc1-c1ccccc1)NO,i
O=S(=O)(c1ccc(-c2csc(=Nc3ccccc3)n2CCCN2CCOCC2)cc1)N1CCOCC1,i
COc1ccc(S(=O)(=O)N(CCCN2CCCC2=O)Cc2cc3c(C)cc(C)cc3[nH]c2=O)cc1,1.6
COc1ccc(NC(=O)CN(c2ccc(C)cc2)S(=O)(=O)c2c(C)nn(C)c2C)cc1OC,i
O=C(CCCN1C(=O)c2cccc3cccc(c23)C1=O)N1CCN(Cc2ccc3c(c2)OCO3)CC1,2.8
Cc1cccc(-n2c(Cc3cc(=O)[nH]c(=O)[nH]3)nnc2SCC(=O)N2CCCCC2)c1,0.4
CCOC(=O)N1CCC(NC(=O)C2CCN(C(=O)N3CC(C)Oc4ccc(C)cc43)CC2)CC1 (configuration not stated),0.2

Later entries:
compound,H5N1 CPE
Cc1cccn2c(=O)c3c(nc12)N1CCC(Cc2ccccc2)CC1C1(C3)C(=O)N(C)C(=O)N(C)C1=O (configuration not stated),11
CC(=O)OC1CCC(OC(C)=O)c2c1n([O-])c(C)c(C)[n+]2=O (configuration not stated),1.8
CCN1CCN(C(=O)c2cc3c(s2)-c2ccccc2S(=O)(=O)C3)CC1,i
Cc1csc(SCCn2c(Br)nc3c2c(=O)[nH]c(=O)n3C)n1,2.5
COCCOC(=O)c1c(C)oc2ccc(OC(=O)c3c(OC)cccc3OC)cc12,i
CCN1C(=S)SC(=O)C1=C1C=C(C)OC(C)=C1,0.3
CCOc1ccc(OCC)c(NS(=O)(=O)c2ccc3c(c2)CCN3C(=O)C2CCC2)c1,i
CC(C)CCNc1nc2c(c(=O)n(Cc3cccc(F)c3)c(=O)n2C)n1C,0.1
CCOc1ccc(C2=Nn3c(nnc3-c3ccccc3)SC2)cc1Cl,1.0
CC(=O)c1ccc(S(=O)c2ccccc2)cc1 (configuration not stated),i
O=C(Nc1ccccc1)c1ccc2c(c1)OCCO2,i
O=C1NC2C(NC(=O)N2C2CCCCC2)N1C1CCCCC1 (configuration not stated),i

(more compounds)
compound,H5N1 CPE
COC(=O)C1=C(C)NC2=C(C(=O)CC(c3cccs3)C2)C1c1ccsc1 (configuration not stated),0.3
CC1CCCCN1C(=O)c1ccccc1NC(=O)c1ccco1 (configuration not stated),3.1
O=S(=O)(NCCSCc1c(Cl)cccc1Cl)c1ccc2c(c1)OCCO2,0.2
N/C(=N\OC(=O)C12CC3CC(CC(C3)C1)C2)c1ccccc1,i
C/C=C(\C)c1nnc(NC(=O)c2ccco2)s1,1.1
CCCCC(=O)Oc1ccccc1C1SCc2cc(C)c(C)cc2CS1,i
Cc1ccc(C(=O)Nc2nc3ccc(S(C)(=O)=O)cc3s2)s1,i
Cc1ccc(S(=O)(=O)c2c(COC(=O)c3ccc(Cl)cc3)c(-c3ccccc3)nn2C)cc1,0.1
COc1cc(CCC(=O)N2CCN(S(=O)(=O)c3ccc(C)c(C)c3)CC2)cc(OC)c1OC,3.0
O=C1CCCN1CCNC(=S)Nc1ccccc1,i
Cc1cc(N2CCOCC2)ccc1/C=C1\NC(=O)N(CC(=O)Nc2ccccc2C)C1=O,i
CC(C)Cn1c(N2CCN(C(=O)c3cccs3)CC2)nc2ccccc21,0.5

Additional compounds
compound,H5N1 CPE
COC(=O)Cn1cc(C(=O)c2ccco2)c2ccccc21,0.7
CCNC(=O)C1CN(S(=O)(=O)c2ccccc2)CCN1S(=O)(=O)c1ccccc1 (configuration not stated),1.9
CCn1c(SCc2ccc(C#N)cc2)nnc1-c1ccc(S(=O)(=O)N2CCCCC2)cc1,9.2
CSc1nc2sc3c(c2c(=O)n1C)CCCC3,1.1
Cn1c(=O)c2c(ncn2CC(=O)Nc2ccccc2)n(C)c1=O,0.0
COc1ccc(C(=O)N2CCCC2)cc1S(=O)(=O)N1CCC(C)CC1,1.4
Cc1oc(CC(C)C)cc1C(=O)Nc1ccc(C(=O)O)cc1,i
Cc1ccc(S(=O)(=O)Nc2ccc(S(=O)(=O)Nc3ncccn3)cc2)cc1,i
Cc1ccc(-c2cc(NC(=O)CSc3n[nH]c(N)n3)n(-c3ccccc3)n2)cc1,i
Cc1cc(C)n2ncc(C(=O)NCCc3ccccc3)c2n1,1.2
O=C(N1CCOCC1)N1CCN(C(=O)N(c2ccccc2)c2ccccc2)CC1,i
O=C(Nc1ccc(Cl)cc1F)c1ccc(COc2c(F)c(F)c(F)c(F)c2F)o1,i

New compounds follow:
compound,H5N1 CPE
O=C(COc1ccccc1Cl)N1CCN(c2ncccn2)CC1,i
CN1C(=O)S/C(=C/c2cccnc2)C1=O,0.2
CC(=O)c1c(C)nc(C)nc1NC(=O)Cc1ccccc1,i
COCC(=O)Nc1ccc(-c2cn3cccnc3n2)cc1,i
CCC(=O)N1CCc2cc(S(=O)(=O)NCCN3CCC(C)CC3)ccc21,1.3
CC1=CC(=NOC(=O)c2cccc([N+](=O)[O-])c2)C=C(C)C1=O,0.1
CCCn1c(SCC(=O)NCc2cccs2)nc2c1c(=O)n(C)c(=O)n2C,1.2
Cc1ccc2c(c1)N(CCCC(=O)NCCC1=CCCCC1)C(=O)CO2,i
Cc1nnc2sc(-c3ccncc3)nn12,0.3
COC(=O)CSC1=NS(=O)(=O)c2ccccc21,0.8
O=C(O)CSc1c[nH]c2ccccc12,0.1
Cc1c(Cl)cccc1-n1c(SCC(=O)N(C)Cc2ccccc2)nnc1-c1ccncc1,1.9

(cont.)
compound,H5N1 CPE
C=CCNC(=O)CCCOc1ccc(C)cc1,0.3
O=C(NCC1CCCCC1)c1ccco1,1.8
C=CCn1c(N)c(C(=O)NC2CCCCC2)sc1=S,1.3
O=S(=O)(NCC1CCCO1)c1ccc(Cl)c(C(F)(F)F)c1 (configuration not stated),1.6
Cc1[nH]c(=S)c(C#N)c(C)c1C(=O)Nc1ccccc1,i
C=CCNC(=S)NNC(=O)CCC(O)CCCCC (configuration not stated),0.1
COC(=O)c1ccc(-c2nc3ccc(C)cc3o2)cc1,i
O=S(=O)(c1cnc[nH]1)N1CCCCCC1,0.9
C=CCn1c(SCc2ccc(C#N)cc2)nnc1-c1ccc(C)cc1,0.3
CCOC(=O)C1CCCN(C(=O)c2cnn3c(C(F)(F)F)cc(-c4ccccc4)nc23)C1 (configuration not stated),2.4
COC(=O)c1sc2ncccc2c1OCc1ccc(Cl)cc1,i
CCc1ccc(N2CC(C(=O)N/N=C/c3cccc([N+](=O)[O-])c3)CC2=O)cc1 (configuration not stated),i

Next part.
compound,H5N1 CPE
CCS(=O)(=O)NC(C)C(c1cccs1)N1CCN(C)CC1 (configuration not stated),0.3
Cc1[nH]n(C(N)=S)c(=O)c1C(c1ccccc1)C(C#N)C#N (configuration not stated),0.0
Cc1sc2nc(C3CC3)nc(SCC(=O)NCc3ccco3)c2c1C,0.4
C=CCn1c(Cc2ccc(OC)cc2)nnc1SCC(N)=O,i
CCOC(=O)/C=C1\NC(=O)CS1,0.4
COc1ccc(/C=C/c2cc(-c3ccc(C)cc3)o[n+]2C)cc1,7.2
CCS(=O)(=O)N1CCC(C(=O)NC2CCCCCCC2)CC1,i
Cn1c(=O)oc2cc(S(=O)(=O)N3CCCC(C(=O)NCc4cccs4)C3)ccc21 (configuration not stated),i
Cc1ccc(Nc2nc(N)nc(CSc3nnc(-c4ccncc4)o3)n2)cc1,0.5
COc1ccccc1OCC(O)CN1C(=O)NC(C)(C)C1=O (configuration not stated),2.0
CN(C)C(=O)NC(O)C(Cl)Cl (configuration not stated),0.2
CC(=O)Oc1ccc2oc(/C=C/N(C)C)c([N+](=O)[O-])c2c1,i

(cont.)
compound,H5N1 CPE
CCOc1cccc(-c2nnc3sc(COc4ccc(C)cc4)nn23)c1,0.7
CCOC(=O)NC(Nc1sc2c(c1C(=O)OC)CCN(C)C2)(C(F)(F)F)C(F)(F)F,1.5
CN(C)c1ccnc(-n2cccc2/C=N/OCc2cccc(F)c2)c1C#N,0.8
CSc1ccc(/C=N\NC(=O)CNc2ccc(C)cc2)cc1,i
COc1ccc(Cn2nnnc2C(c2cc3ccc(OC)cc3[nH]c2=O)N2CCCCCC2)cc1 (configuration not stated),i
COC(=O)c1sccc1NC(=O)CN(C)NS(=O)(=O)c1ccc([N+](=O)[O-])cc1,0.7
COC(=O)c1ccc(Oc2c(C(F)(F)F)oc3c(CN4CCN(C)CC4)c(O)ccc3c2=O)cc1,i
O=C(CCCC(=O)N(CC(=O)NC1CCCC1)Cc1ccccc1)Nc1ccccn1,i
CC(=O)NC(CCS(C)(=O)=O)C(=O)Nc1nccs1 (configuration not stated),0.1
CCCCn1nnc(NC(=O)c2cc3ccccc3o2)n1,1.0
COc1ccc(C2NC(=O)NC(O)(C(F)(F)F)C2C(=O)c2ccccc2)cc1OC (configuration not stated),i
CS(=O)(=O)N1N=C(c2ccc(Cl)cc2)CC1c1cccs1 (configuration not stated),0.5

At a glance, part of the list above.
compound,H5N1 CPE
CCOc1cccc(-c2nnc3sc(COc4ccc(C)cc4)nn23)c1,0.7
CCOC(=O)NC(Nc1sc2c(c1C(=O)OC)CCN(C)C2)(C(F)(F)F)C(F)(F)F,1.5

Among those listed so far, two contain a tert-butyl group.
compound,H5N1 CPE
CC(C)(C)c1ccc(-c2c(C#N)c(N)nc3c2CCCC3)s1,0.6
CC(C)(C)n1nnnc1C(c1cccc(C#N)c1)N1CCN2CCCC2C1 (configuration not stated),i

Screening results from PubChem.

These rows are one share of the data, so the mix of outcomes need not match the whole.
